# Screening results deposited in PubChem by several laboratories.
# MT1-MMP act inh: blocks activation of human MT1-MMP. GFP/RFP ratio change, % at 20 µM. HT1080 RFP-PRO-GFP cells, GFP/RFP ratio fluorescence, overnight; percent of plate control window, DMSO zero. 360,000 compounds, 0.061% hits;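 active = GFP/RFP ratio change of at least 30% with cell ATP level not reduced by more than half and red fluorescence within 50% of control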; also: strong numbers were not always called active
#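 system = RFP-PRO-GFP reporter HT1080 cells | dosing = 20 µM single dose, 1% DMSO | timing = overnight cell settling, then overnight compound exposure, 37 °C, 5% CO2 | read-out basis = GFP/RFP fluorescence ratio | controls = DMSO and RFP-L50D-GFP cell wells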
# Yeast UUG start: alters start codon recognition fidelity in yeast; S. cerevisiae UUG-firefly luciferase reporter, luminescence/redox ratio; activity score, % at 18.7 µM; 350,000 compounds, 0.13% hits; AID 602363;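 active = replicate mean at a twofold rise or more, about +100% in these data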;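 also: firefly luciferase made from a UUG start codon reports start codon fidelity; reporter light over untreated wells divided by growth signal over untreated wells; some hits fall short of that in this replicate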
# Rce1 inhib: yeast Ras-converting enzyme inhibition. Q03530. yeast membranes, quenched prenylated peptide cleavage fluorescence. calls only. 290,000 compounds, 0.27% hits. AID 2563;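 active = fall in fluorescence gain of 50% or more versus controls, with final raw signal at or below 3038400; inconclusive = same 50% fall but final raw signal above 3038400; inactive = fall in fluorescence gain under 50%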;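 also: plate controls were neutral control wells for no effect and wells lacking membranes for full effect; tested at 10 µM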
# PABP polyA inh: blocks human PABP binding to poly(A) RNA; P11940; fluorescence polarization; inhibition, % at 35 µM; 290,000 compounds, 1% hits; AID 2014;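 active = 50% or more with normal probe brightness, or confirmed in later tests; inconclusive = above 50% with abnormal brightness, or retests that disagree; inactive = below 50% or failed in later tests; about a fifth of its hits are not listed in these tables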;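 also: calls also rest on retests at 20 µM and on dose response follow-up; controls were probe without protein and protein plus probe with vehicle; some compounds called inactive have numbers as strong as hits; many hits fall short of the cut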
# Target sequence (P11940 whole entry, looked up): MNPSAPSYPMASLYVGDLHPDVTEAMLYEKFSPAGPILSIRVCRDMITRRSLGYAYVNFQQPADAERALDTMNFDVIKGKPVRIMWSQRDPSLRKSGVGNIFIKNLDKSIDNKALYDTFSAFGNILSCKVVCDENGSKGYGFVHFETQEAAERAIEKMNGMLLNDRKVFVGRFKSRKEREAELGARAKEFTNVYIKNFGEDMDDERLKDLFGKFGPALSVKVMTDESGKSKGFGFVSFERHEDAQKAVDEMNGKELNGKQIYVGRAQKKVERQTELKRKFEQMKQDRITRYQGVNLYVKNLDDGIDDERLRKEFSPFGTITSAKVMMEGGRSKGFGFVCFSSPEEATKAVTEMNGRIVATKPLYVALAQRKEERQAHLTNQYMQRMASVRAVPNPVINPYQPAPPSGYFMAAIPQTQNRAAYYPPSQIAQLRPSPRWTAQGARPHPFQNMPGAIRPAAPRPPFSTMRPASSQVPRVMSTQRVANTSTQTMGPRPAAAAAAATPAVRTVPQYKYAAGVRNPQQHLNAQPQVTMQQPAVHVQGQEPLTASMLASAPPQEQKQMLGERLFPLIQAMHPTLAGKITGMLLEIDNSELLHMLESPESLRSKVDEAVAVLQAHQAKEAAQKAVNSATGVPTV
# HIV Env fusion: blocks HIV Env-driven cell-cell fusion. HeLa-JRFL Env/CEM21 cell fusion, luciferase. 360,000 compounds, 1.1% hits. inhibition, % at 12.3 µM;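 active = mean replicate inhibition score of at least 50 and every replicate individually at or above 50; inconclusive = only one of the two criteria met; inactive = mean below 50 and not all replicates reaching 50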;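 also: 0% = plate neutral controls and 100% = maraviroc near 300 nM; one replicate is shown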
# CSC inhib: blocks cancer stem cells; cancer stem cell-like cells viability, luminescence; inhibition, % at 7.5 µM; 300,000 compounds, 1.1% hits;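 active = mean at 75% or more and at least half the replicates too; inconclusive = mean and replicates disagree; tested in HMLE shEcad cells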;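 also: 0% = median of negative and 100% = median of positive control wells; the first replicate is given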
# eIF4H FP inh: inhibitors of RNA binding by human eIF4H; AID 2012; eIF4H fluorescence polarization binding assay; Q15056; 290,000 compounds, 0.94% hits; inhibition, % at 35 µM;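 active = 50% or more with normal probe brightness, or confirmed in later tests; inconclusive = above 50% with abnormal brightness, or retests that disagree; inactive = below 50% or failed in later tests; about a fifth of its hits are not listed in these tables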;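 also: calls also rest on retests at 20 µM and on dose response follow-up; 0% = protein and probe with vehicle and 100% = probe without protein; strong numbers were not always called active; many hits fall short of the cut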
# eIF4H FP inh retest: recorded beside eIF4H FP inh, whose call it bears; inhibition, %; compound at 20 µM; confirmation average;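 mean of two retest wells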
# PABP polyA inh retest: recorded beside PABP polyA inh, whose call it bears; inhibition, %; compound at 20 µM; confirmation repeats;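 mean of two retest wells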
# MT1-MMP act inh RFP: second read-out of MT1-MMP act inh, no call of its own (marks repeat the call); RFP signal change, %; measured here: RFP expression control read;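 0 = vehicle wells; hits needed this value within 50% of zero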
# Active calls of the source: *; i = inactive; ? = inconclusive; / = not tested or not shown; & = joins results of further samples. Compounds were not picked by outcome; about 3% have a hit in one of these screens.
SMILES,MT1-MMP act inh,MT1-MMP act inh RFP,Yeast UUG start,Rce1 inhib,PABP polyA inh,HIV Env fusion,CSC inhib,eIF4H FP inh,others
CC1CCN(Cc2nnnn2CCCC(=O)NC(c2ccccn2)C(F)(F)F)CC1 (centres undefined),0,3,-14,/,5,23,-12,0,
O=C(Nc1cccs1)OCCN1CCN(Cc2ccccc2)CCC1=O,1,-3,3,i,-9,9,-2,0,
CCCCc1c(CCC)c(=N)c2ccccc2n1C,-1,-16,/,i,58*,-11,/,2,
O=C(Nc1nc2ccccc2[nH]1)c1ccccc1OC(F)F,0,1,-62,i,-1,-96,20,0,
OC1(CNCc2ccccc2)C2CC3CC(C2)CC1C3 (centres undefined),4,2,/,i,6,3,2,-12,
Cc1ccc(CN2C(=O)CCC2C(=O)NCCCN2CCCC(C)C2)cc1 (centres undefined),0,2,2,i,2,/,22,9,
C/C(=N\NS(=O)(=O)c1ccc(C)cc1)c1cccs1,-3,2,-9,i,0,1,-17,-4,
COc1ccc(OC)c(C(=O)Nc2ccc3[nH]ccc3c2)c1,2,1,/,i,/,-124,-2,/,
Cc1n[nH]c(=O)c2c(NC(=O)CSc3ccc(F)cc3)oc(C)c12,1,3,/,i,/,2,-11,/,
O=C1CN(C(=O)CN2C(=O)NC3(CCCCC3)C2=O)c2ccccc2N1,-7,3,/,i,2,2,-6,6,
COc1ccc(C(=O)N2CCc3ccccc32)cc1S(=O)(=O)N1CCOCC1,1,4,-15,/,/,0,/,/,
CN1CCN(C(=O)c2c(O)c3cccc4c3n(c2=O)CCC4)CC1,7,6,-18,i,14,/,6,-7,
COc1ccccc1NC(=O)COC(=O)[C@@H]1CCCN1C(=O)c1cccs1,-3,-2,-6,i,13,/,-8,-1,
COc1ccc2cc(C[C@@H]3CC[C@@H](CNC(N)=O)O3)ccc2c1,3,0,-8,/,/,-14,/,/,
O=C(Nc1ccc(OCC(=O)N2CCOCC2)cc1)c1ccccc1F,1,4,-5,i,16,-5,2,3,
Nc1c(C(=O)Nc2ccccc2)sc2nc(-c3cccnc3)ccc12,/,/,/,i,13,7,13,8,
CCOC(=O)c1ccc(Oc2coc3cc(O)ccc3c2=O)cc1,3,-2,/,i,0,-19,5,1,
Cc1cccc2cc(C#N)c(NCCNC(=O)COc3ccccc3)nc12,3,0,/,i,7,-153,2,-1,
O=C(CSc1nnc(-c2ccco2)o1)N1CCN(c2ccccc2)CC1,4,-4,/,i,0,0,-5,-2,
O=S(=O)(NCc1ccc2c(c1)OCO2)c1cccc2nsnc12,1,4,/,i,-11,11,-8,-9,

# Overlap with the part before: three compounds, followed by the next part.
SMILES,MT1-MMP act inh,MT1-MMP act inh RFP,Yeast UUG start,Rce1 inhib,PABP polyA inh,HIV Env fusion,CSC inhib,eIF4H FP inh,others
Cc1cccc2cc(C#N)c(NCCNC(=O)COc3ccccc3)nc12,3,0,/,i,7,-153,2,-1,
O=C(CSc1nnc(-c2ccco2)o1)N1CCN(c2ccccc2)CC1,4,-4,/,i,0,0,-5,-2,
O=S(=O)(NCc1ccc2c(c1)OCO2)c1cccc2nsnc12,1,4,/,i,-11,11,-8,-9,
COc1cc(OC)cc(C(=O)Nc2ccc(S(=O)(=O)N3CCOCC3)cc2)c1,1,-3,-1,i,1,3,-7,-4,
CC(OC(=O)Cn1[nH]c(=O)c2ccccc2c1=O)C(=O)Nc1ccc(F)cc1 (centres undefined),4,5,/,i,/,/,-7,/,
N#CC1=C(N)C(C#N)(C#N)C(c2cccnc2)C2CC(c3ccccc3)CC=C12 (centres undefined),-50,-9,-13,i,77*,/,7,?,
O=[N+]([O-])c1cccc(S(=O)(=O)N2CCN(S(=O)(=O)N3CCCCCC3)CC2)c1,0,2,-18,i,-29,-2,-8,-19,
CC(C)NC(=O)C(=O)NNC(=O)CCc1ccccc1,4,8,/,i,2,-23,-8,-16,
CCOC(=O)C1=C(C)Nc2ncnn2C1c1ccc(N(C)C)cc1 (centres undefined),0&-3,4&-3,-26&-1,i,12,-7,27,-1,
CCOC(=O)C1(C)CCCCCN1C(=O)c1ccc(OC)cc1 (centres undefined),-2,2,9,/,/,16,/,/,
Cc1occc1-c1nnc(SCC(=O)NC2CCCCC2C)o1 (centres undefined),2,5,-3,/,/,-3,/,/,
CC(=O)NS(=O)(=O)c1ccc(NC(=O)c2cc(-c3ccc(C)c(C)c3)nc3ccccc23)cc1,0,0,-22,/,14,/,4,9,
CCOC(=O)C1C(=O)C=C(c2cccs2)CC1c1ccccc1C (centres undefined),-4,-1,/,i,5,-3,14,-5,
Cc1ccc(C(=O)Nc2ccccc2C(=O)NCC2CCCO2)cc1 (centres undefined),2,3,-3,i,8,-13,4,6,
CCOC(=O)c1c(NC(=O)C2COc3ccccc3O2)sc(C)c1C (centres undefined),1,-4,-4,i,-10,-30,-13,-5,
CCc1ccc(C(=O)C(C)OC(=O)Cn2[nH]c(=O)c3ccccc3c2=O)cc1 (centres undefined),-1,-1,-2,/,/,/,-7,/,
O=[N+]([O-])c1ccccc1/C=N/N1CCN(c2ccncc2S(=O)(=O)N2CCCCC2)CC1,6,1,-25,i,2,33,4,-2,
COc1ccc(C(=O)Cn2nnc(-c3ccccc3NC(=O)c3ccco3)n2)cc1,-3,1,-5,i,1,/,35,-5,
CC(=O)NCc1ccc(C(=O)CSc2nnc(-c3ccncc3)n2Cc2ccccc2)o1,1,8,-14,i,50,/,0,80,eIF4H FP inh retest=-8;PABP polyA inh retest=-4
N#Cc1cc(C(=O)c2cc(Cl)ccc2O)cn(-c2ccccc2)c1=O,-3,-1,/,i,-5,-11,-7,-10,
Cc1ccccc1-c1ccnc2[nH]n(-c3ccccc3)c(=O)c12,4,-3,4,i,6,9,-4,-9,
NCCCCCc1nnc(SCc2ccc(Cl)cc2Cl)o1,4,9,-15,i,5,-12,3,6,
COC(=O)c1[nH]c2cc(OC)c(OC)cc2c1NC(=O)c1cccc(OC)c1,5,-1,-18,i,8,/,-4,-1,
CCCCNC(=O)c1onc(CSc2cccc(OC)c2)c1C(=O)NCCCC,-1,-3,0,i,/,28,-4,/,
CCOC(=O)C1CCCN(c2c(NCCc3cccc(C)c3)c(=O)c2=O)C1 (centres undefined),1,3,/,i,-3,-5,-16,1,
CCCCn1c(N)c(N(CC)C(=O)c2cc(Br)ccc2Cl)c(=O)[nH]c1=O,-4,-1,/,i,10,4,-4,0,
O=C(NNC(=O)c1ccccc1O)c1ccc(NS(=O)(=O)c2ccc(F)c(F)c2)cc1,7,8,/,i,/,2,61,/,
CS(=O)(=O)c1ccc(Cl)c(NC(=O)CSc2n[nH]c(N)n2)c1,-4,1,-10,i,/,1,0,/,
COc1ccc(C(=O)Nc2ccc(S(=O)(=O)N3CCCC3)cc2)cc1[N+](=O)[O-],3,1,-13,i,4,1,-11,2,
COc1ccc(Cc2nn3c(-c4cc(OC)c(OC)c(OC)c4)nnc3s2)cc1,6,-2,-18,i,-4,13,-7,-4,
O=C(NCCS(=O)(=O)c1ccc(Br)cc1)c1ccc(F)cc1,-2,1,-22,i,-10,-59,0,-1,
CCNC(=O)C1(C)CCCN1C(=O)c1ccc2c(c1)OCO2 (centres undefined),0,6,-18,/,/,1,/,/,
O=C(c1cccnc1)N1CCN(C/C=C/c2ccccc2)CC1,-1,-3,/,i,4,-31,-13,1,
O=C(COC(=O)/C=C/c1cccc(F)c1)NC(=O)NCc1ccccc1,0,4,-12,/,/,/,-19,/,
Cc1nc(N2CCN(c3ccccn3)CC2)c2c(C)c(C(=O)N3CCN(c4ccc(F)cc4)CC3)sc2n1,-3,-16,39,i,-1,?,/,0,
CN(Cc1ccccc1)c1nc(-c2cccc([N+](=O)[O-])c2)nc2ccccc12,-1,-1,-11,i,0,10,-1,7,
CSc1ncccc1C(=O)NC1CCCCCC1,1,1,/,i,-2,-16,-14,7,
COc1ccc(-n2nnnc2SCC(=O)Nc2cccc(O)c2)cc1,-1,-6,-3,i,2,-4,-8,9,
O=c1[nH]c(-c2ccccc2)nc2sc(-c3ccccc3)cc12,3,-1,/,i,5,-100,21,10,
CC1CCN(C(=O)Cn2cc(SCC(=O)NCC3CCCO3)c3ccccc32)CC1 (centres undefined),1,3,/,i,5,5,-12,-2,
CCOC(=O)CN(C)Cc1cn(C)nc1-c1ccc(Oc2ccccc2)cc1,-6,-4,-5,i,-7,-5,-8,-3,
COc1cccc2c1OC[C@@H](CO)[C@H]2N(C)C(=O)Nc1ccccc1,4,1,/,i,-10,/,/,-5,
COc1ccc(C2=NOC(Cn3nc(C(=O)NCc4ccc(C)cc4)cc3-c3ccccc3)C2)cc1 (centres undefined),3,-15,-6,i,/,5,2,/,
Cc1ccc(-c2cc(C(=O)N/N=C/c3c(C)nn(-c4ccccc4)c3C)n[nH]2)s1,12,-5,-13,i,-12,-165,/,5,
CCc1ccc(C(C(=O)NCCOC)N(C(=O)Cn2nnc3ccccc32)c2cccnc2)cc1 (centres undefined),-1,1,-9,i,3,-142,-26,2,
CCc1ccc(-c2csc(NC(=O)COC(=O)CCc3nc4ccccc4s3)n2)cc1,/,/,/,i,-2,/,7,-4,
CC(C)(C)OC(=O)NC(CCCCNC=O)C(=O)O (centres undefined),1,5,-9,i,5,-22,-11,-7,
O=C(CS(=O)(=O)c1ccccc1)N1CCCCCC1,0,6,14,i,-12,/,-9,-3,
CC1CC(C)CN(c2oc(-c3ccccc3Cl)nc2C#N)C1 (centres undefined),6,0,-13,i,-3,/,7,9,
Cc1ccccc1OCC(=O)O/N=C(\N)Cc1cccs1,3,1,-2,i,-17,/,/,4,
Cc1ccnc(NCc2ccccc2O)c1,-3,1,-12,i,6,-15,4,-7,
Cc1cc(NC(=O)CSc2nc(-c3cccs3)cc(C(F)(F)F)n2)no1,-1,-9,-11,i,14,/,/,-8,
O=C(N/N=C/c1cc(Br)c(Br)s1)c1ccncc1,-3,-3,-19,i,-16,31,52,25,
C/C(=N\Nc1ccc(F)cc1F)c1ccccc1O,2,2,-11,/,-5,-46,35,-13,
O=C(NCc1ccc(F)cc1)C(c1ccccc1)N(C(=O)c1csnn1)c1ccccc1 (centres undefined),-2,0,-3,i,3,-30,/,-2,
COc1ccc(CC(=O)Nc2ccc3c(c2)OCO3)cc1S(=O)(=O)N1CCOCC1,3,1,-5,i,3,/,1,-5,
C[C@@H](C(=O)NCc1ccco1)N1C(=O)N2CCc3c([nH]c4ccccc34)[C@@]2(C)C1=O,0,-6,5,i,2,/,-1,-4,
N#CCCN1CCN(Cc2cc(-c3ccccc3)ccc2O)CC1,2,1,-18,i,-7,-18,-2,-3,
CCOC(=O)c1c(C)c(C(=O)N2CCc3ccccc3C2)c(C)n1CC,2,-3,/,i,8,-16,4,-3,
COc1cccc(NC(=O)Nc2ccc(Br)cn2)c1,-5,-4,-18,i,9,-59,-7,-8,
CCn1c(SCC(=O)N2CCCCC2C)nnc1-c1ccc(S(=O)(=O)N2CCN(C)CC2)cc1 (centres undefined),-2,1,-17,i,-7,-52,-9,-4,
O=C(CCN1C(=O)S/C(=C\c2ccccc2)C1=O)NCCCn1ccnc1,1,0,-7,i,-3,-2,47,-7,
